NOMO-1 viab – STK33 inhibitor candidate reducing NOMO-1 cell viability. NOMO-1 AML viability, CellTiter-Glo luminescence, 72 h. inhibition, % (concentration not given with the values). 37,000 compounds, 7.5% hits. AID 2330;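 active = most replicates above 80%; inconclusive = exactly half above 80%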;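 note: wells of about 30 µL received 25 nL stock; 0% = median of vehicle wells and 100% = reference inhibitor level; the first replicate is given; inactives centre near 10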
* marks the source's active call; other numbers are inactive results; ? = inconclusive. Only part of the results is shown, so the mix of outcomes need not match the whole.

smiles | NOMO-1 viab
COc1ccc(S(=O)(=O)N(CC(N)=O)c2ccc(C)cc2)cc1Br | 15
O=C(/C=C/c1c[nH]c2ccccc12)N1CCCCC1 | 52
O=C(CSc1nc2sc3c(c2c(=O)n1Cc1ccccc1)CCCCC3)c1ccccc1 | ?
C[C@@H]1CN([C@H](C)CO)C(=O)c2cc(NS(=O)(=O)c3ccccc3)ccc2O[C@H]1CN(C)CC1CC1 | -2
O=C(O)c1ccccc1-c1ccccc1C(=O)NCc1ccco1 | 5
C[C@H]1CN([C@@H](C)CO)C(=O)c2cc(NC(=O)CCC(F)(F)F)ccc2O[C@H]1CN(C)S(=O)(=O)c1ccc(F)cc1 | 5
Cc1ccccc1NC(=O)CN(c1ccc(Br)cc1)S(C)(=O)=O | 25
C[C@H]1CN([C@@H](C)CO)C(=O)c2cccc(NC(=O)c3cnccn3)c2O[C@H]1CN(C)Cc1ccc(C(=O)Nc2ccccc2N)cc1 | 129*
C[C@@H]1CN([C@H](C)CO)C(=O)c2cc(NC(=O)Nc3ccc(F)cc3)ccc2O[C@H]1CN(C)CC1CCCCC1 | 52
Cc1noc(C)c1S(=O)(=O)Nc1ccc2c(c1)C(=O)N([C@H](C)CO)C[C@H](C)[C@@H](CN(C)C(=O)C1CCCCC1)OCCCC[C@@H](C)O2 | 65
O=C1CCCCCN1CP(=O)(O)CN1CCCCC1 | 17
O=C(NCCCN1CCOCC1)c1cccnc1 | 0
C[C@@H]1CN([C@@H](C)CO)C(=O)Cc2cc(NC(=O)Nc3ccccc3)ccc2O[C@@H]1CN(C)S(=O)(=O)c1ccccc1 | 53
COc1ccc(NC(=O)Nc2ccc3c(c2)C(=O)N([C@H](C)CO)C[C@@H](C)[C@@H](CN(C)S(=O)(=O)c2ccc(C)cc2)O3)cc1 | 30
CCn1c(SCC(=O)Nc2cccc(SC)c2)nnc1-c1ccc(Cl)cc1 | 0
COc1ccc2c(c1)O[C@@H]1COc3cc(OC)c(OC)cc3[C@@H]1C2=O | 52
COc1ccc(NC(=O)N(C)C[C@H]2Oc3ccc(NC(=O)Cn4cnnn4)cc3CC(=O)N([C@@H](C)CO)C[C@H]2C)cc1 | 33
C[C@H]1CN([C@@H](C)CO)C(=O)c2cc(NC(=O)Cc3cn(C)c4ccccc34)ccc2O[C@H]1CN(C)S(=O)(=O)c1ccc(Cl)cc1 | 34
CNC[C@@H]1Oc2c(NC(=O)C3CC3)cccc2C(=O)N([C@@H](C)CO)C[C@H]1C | 10
COc1ccc(N(CC(=O)Nc2ccc(I)cc2C)S(C)(=O)=O)cc1Cl | 8

Another view of some results above.
> O=C1CCCCCN1CP(=O)(O)CN1CCCCC1
  NOMO-1 viab: 17

> O=C(NCCCN1CCOCC1)c1cccnc1
  NOMO-1 viab: 0

> C[C@@H]1CN([C@@H](C)CO)C(=O)Cc2cc(NC(=O)Nc3ccccc3)ccc2O[C@@H]1CN(C)S(=O)(=O)c1ccccc1
  NOMO-1 viab: 53

> COc1ccc(NC(=O)Nc2ccc3c(c2)C(=O)N([C@H](C)CO)C[C@@H](C)[C@@H](CN(C)S(=O)(=O)c2ccc(C)cc2)O3)cc1
  NOMO-1 viab: 30

(more compounds)
smiles | NOMO-1 viab
COC(=O)Cc1c(/C(Cl)=C/C(=O)O)oc2cc(C)cc(O)c2c1=O | 50
CC(C)CC(C(=O)c1ccccc1)c1ccccc1 (configuration not stated) | 49
COc1cc(OC)nc(NCC(NC(=O)c2ccccc2)C(N)=O)n1 (configuration not stated) | -7
COc1ccc(NC(=O)Nc2cccc3c2O[C@H](CN(C)C(=O)Nc2ccc(C(F)(F)F)cc2)[C@@H](C)CN([C@H](C)CO)C3=O)cc1 | 23
CCN1CCN(C(=O)CN(c2cccc([N+](=O)[O-])c2)S(C)(=O)=O)CC1 | -37
C[C@@H]1CCCCO[C@@H](CN(C)C(=O)Nc2ccccc2)[C@@H](C)CN([C@H](C)CO)C(=O)c2cc(N(C)C)ccc2O1 | -8
C[C@@H]1CN([C@H](C)CO)C(=O)Cc2cc(NS(C)(=O)=O)ccc2O[C@@H]1CN(C)S(=O)(=O)c1ccc(F)cc1 | -8
C[C@H]1CN([C@@H](C)CO)C(=O)c2cccc(NC(=O)c3cnccn3)c2O[C@@H]1CN(C)Cc1ccc(-c2ccccc2)cc1 | 25
O=C(CSc1nnc(-c2ccccc2)n1-c1ccccc1)Nc1ccc(Br)cc1 | 9
C[C@@H]1CN([C@@H](C)CO)C(=O)Cc2cc(NS(=O)(=O)c3ccccc3)ccc2O[C@@H]1CN(C)S(C)(=O)=O | 15
C/C=C(/C)C(=O)O[C@@H](C)[C@@](C)(O)C(=O)O[C@H](C)[C@@H](OC(=O)/C(C)=C\C)c1cc(OC)c2c(c1)OCO2 | 119*
CCC(C)CCCCCCCCC1CC(=O)NC(CCC(N)=O)C(=O)NC(CC(C)C)C(=O)NC(CC(C)C)C(=O)NC(C(C)C)C(=O)NC(CC(=O)O)C(=O)NC(CC(C)C)C(=O)NC(C(C)C)C(=O)O1 (configuration not stated) | 111*
O=C(CSc1nnc(Cc2ccccc2)o1)N1c2ccccc2Sc2ccccc21 | -5
C[C@H](CO)N1C[C@H](C)[C@H](CN(C)Cc2ccc(C(=O)Nc3ccccc3N)cc2)Oc2ccc(NS(=O)(=O)c3ccc(Cl)cc3)cc2C1=O | 96*
COc1ccc(CN(C)C[C@H]2Oc3c(NC(=O)c4cc(C)nn4C)cccc3C(=O)N([C@H](C)CO)C[C@@H]2C)cc1 | 26
Cn1nnnc1SCC(=O)Nc1ccc(F)c(F)c1 | 17
C[C@H](CO)N1C[C@H](C)[C@@H](CN(C)Cc2ccc(C(=O)O)cc2)Oc2ccc(NC(=O)CCN3CCOCC3)cc2C1=O | 25
Cc1nc(-c2ccccc2)sc1C(=O)C1C(=O)C(=O)N(CCN(C)C)C1c1cccc([N+](=O)[O-])c1 (configuration not stated) | -11
COc1ccc(NCC(C#N)C(=O)NCc2ccc(Cl)cc2)cc1 (configuration not stated) | 15
C[C@H]1CN([C@@H](C)CO)C(=O)c2cccc(NC(=O)C3CCOCC3)c2O[C@H]1CN(C)S(=O)(=O)c1cn(C)cn1 | 18
COCCNC(=O)c1ccccc1NC(=O)c1ccco1 | 9
Cc1cc(N(CC(=O)Nc2ccc3c(c2)OCCO3)S(C)(=O)=O)ccc1Br | 28
COc1ccc(NC(=O)N(C)C[C@@H]2Oc3ccc(NC(=O)c4ccncc4)cc3CC(=O)N([C@H](C)CO)C[C@@H]2C)cc1 | 13
Cc1ccc(C(=O)Cn2c(C)csc2=Nc2ccccc2)cc1 | 18
COc1ccc(NC(=O)CSc2nnc(-c3ccccc3)n2-c2ccccc2)c([N+](=O)[O-])c1 | 2
C[C@H]1CN([C@@H](C)CO)C(=O)c2cc(NC(=O)Cc3cn(C)c4ccccc34)ccc2O[C@@H]1CN(C)S(=O)(=O)c1cccs1 | 15
C[C@H]1CN([C@@H](C)CO)C(=O)Cc2cc(NC(=O)Nc3ccccc3)ccc2O[C@@H]1CN(C)C(=O)Nc1ccc2c(c1)OCO2 | 21
O=C(CSc1nnc(Nc2ccccc2)n1-c1ccccc1)Nc1ccccc1Cl | -5
Cc1ccccc1-c1nc(S(=O)(=O)c2ccc(Br)cc2)c(NCc2cccnc2)o1 | 26
O=C(COc1ccccc1[N+](=O)[O-])Nc1ccc2oc(=O)ccc2c1 | -33
Cc1noc(C)c1NC(=O)N(C)C[C@@H]1Oc2ccc(N(C)C)cc2C(=O)N([C@H](C)CO)C[C@H]1C | 17
COc1ccc(-c2cc(C(F)(F)F)nc(SCC(=O)Nc3ccc(C)cc3)n2)cc1 | 49
COc1ccc(NC(=O)N(C)C[C@@H]2Oc3ccc(NC(=O)c4ccncc4)cc3C(=O)N([C@H](C)CO)C[C@@H]2C)cc1 | 28
CC1(C)Cc2nc3nc(SCC(=O)c4ccc(Br)cc4)n(-c4ccccc4)c(=O)c3cc2CO1 | 44
CC(C)NC(=O)Nc1ccc2c(c1)C(=O)N([C@@H](C)CO)C[C@H](C)[C@H](CN(C)C(=O)Nc1ccc(C(F)(F)F)cc1)O2 | -5
Cc1ccc(S(=O)(=O)Nc2ccc3c(c2)C(=O)N([C@@H](C)CO)C[C@H](C)[C@H](CN(C)C(=O)NC2CCCCC2)O3)cc1 | 20
C[C@@H]1CN([C@H](C)CO)C(=O)c2cccc(NC(=O)c3cnccn3)c2O[C@@H]1CN(C)Cc1ccc(C(=O)O)cc1 | 17
COc1ccc(NC(=O)Nc2ccc3c(c2)CC(=O)N([C@@H](C)CO)C[C@H](C)[C@H](CN(C)C(=O)Nc2ccc(C(F)(F)F)cc2)O3)cc1 | 20
CNC[C@@H]1Oc2c(NC(=O)NC(C)C)cccc2C(=O)N([C@@H](C)CO)C[C@H]1C | 16
Cc1cc(C)c(NC(=O)CN(c2ccc(Br)cc2)S(C)(=O)=O)c(C)c1 | 27

Copied from the list:
Reading for `O=C(COc1ccccc1[N+](=O)[O-])Nc1ccc2oc(=O)ccc2c1` in NOMO-1 viab: -33
Reading for `CCn1c(SCC(=O)Nc2cccc(SC)c2)nnc1-c1ccc(Cl)cc1` in NOMO-1 viab: 0

Carrying on:
smiles | NOMO-1 viab
C[C@@H]1CN([C@@H](C)CO)C(=O)Cc2cc(NC(=O)Nc3ccc(F)cc3)ccc2O[C@@H]1CN(C)CC1CCCCC1 | 81*
CC(Oc1ccc(Br)cc1)c1nc(-c2cccnc2)no1 (configuration not stated) | 15
COc1ccc(S(=O)(=O)N(C)C[C@H]2Oc3c(NC(=O)Nc4c(C)noc4C)cccc3C(=O)N([C@@H](C)CO)C[C@@H]2C)cc1 | 15
C[C@H](CO)N1C[C@H](C)[C@H](CN(C)C(=O)Nc2cccc3ccccc23)Oc2ccc(NS(=O)(=O)c3cccs3)cc2CC1=O | 20
C[C@@H]1CN([C@@H](C)CO)C(=O)c2cc(NS(=O)(=O)c3ccccc3)ccc2O[C@H]1CN(C)C(=O)Nc1ccc(C(F)(F)F)cc1 | 19
C[C@H](CO)N1C[C@H](C)[C@@H](CN(C)Cc2ccc(C(F)(F)F)cc2)Oc2c(NC(=O)Nc3ccc(C(F)(F)F)cc3)cccc2C1=O | 105*
C[C@H]1CN([C@@H](C)CO)C(=O)Cc2cc(NC(=O)Nc3ccc(C(F)(F)F)cc3)ccc2O[C@@H]1CN(C)C(=O)Nc1ccccc1 | 40
C[C@@H]1CN([C@@H](C)CO)C(=O)Cc2cc(NC(=O)CCCN(C)C)ccc2O[C@@H]1CN(C)S(=O)(=O)c1ccccc1 | -6
COc1ccc(CN(C)C[C@@H]2Oc3c(NC(=O)Nc4ccc(OC)cc4)cccc3C(=O)N([C@H](C)CO)C[C@@H]2C)cc1 | 5
Cc1ccc(-c2cc(C(F)F)n3ncc(C(=O)NCc4ccco4)c3n2)cc1 | 25
C[C@@H]1CN([C@@H](C)CO)C(=O)c2cccc(NC(=O)c3ccc(-c4nccs4)cc3)c2O[C@@H]1CN(C)C(=O)Nc1ccc2c(c1)OCO2 | 3
O=C(CSc1nnc(-c2cccnc2)n1-c1ccc(Br)cc1)c1ccc(F)cc1 | 21
C[C@H]1CN([C@@H](C)CO)C(=O)c2cc(NC(=O)Cc3cn(C)c4ccccc34)ccc2O[C@H]1CN(C)S(=O)(=O)c1ccccc1 | 8
CCN(CC)S(=O)(=O)c1ccc(OC)c(NC(=O)c2cc3ccccc3oc2=O)c1 | -17
C[C@@H]1CN([C@@H](C)CO)C(=O)Cc2cc(NS(=O)(=O)c3ccc(F)cc3)ccc2O[C@@H]1CN(C)C(=O)NC1CCCCC1 | 33
Cc1cc(C)c(COc2ccc3c(c2C)OC(C)(C)CC3=O)c(C)c1 | 20
CNC[C@H]1Oc2ccc(NC(=O)c3ccncc3)cc2C(=O)N([C@H](C)CO)C[C@@H]1C | 15
C[C@@H]1CN([C@H](C)CO)C(=O)c2cccc(N(C)C)c2O[C@H]1CN(C)Cc1ccncc1 | 35
Cc1noc(C)c1S(=O)(=O)Nc1cccc2c1O[C@@H](CN(C)S(=O)(=O)c1cn(C)cn1)[C@@H](C)CN([C@@H](C)CO)C2=O | 2
N#CC1CN(CCc2ccccc2)CN(CCc2ccccc2)C1 | 111*
CC(C)NC(=O)N(C)C[C@H]1Oc2c(NC(=O)c3nc4ccccc4s3)cccc2C(=O)N([C@H](C)CO)C[C@H]1C | 28
CCN(CC)c1ncc2c(NCc3ccccc3)nc(SCc3ccccc3)nc2n1 | 43
C=CC(C)(C)[C@@]12C[C@H]3C(=O)N[C@H]([C@@H](C)CC)C(=O)N3[C@@H]1Nc1ccccc12 | 38
Cc1ccc(N(CC(=O)Nc2ccc(F)cc2)S(=O)(=O)N2CCCC2)cc1 | -1
C[C@@H]1CN([C@@H](C)CO)C(=O)c2cccc(NC(=O)C3CCCCC3)c2O[C@H]1CN(C)Cc1ccc(Cl)c(Cl)c1 | 42
COc1ccc(NC(=O)CCCC(=O)O)cc1 | -24
C[C@@H]1CN([C@@H](C)CO)C(=O)c2cccc(NC(=O)c3ccncc3)c2O[C@H]1CN(C)Cc1ccc(C(=O)O)cc1 | 3
CCS(=O)(=O)Nc1cccc(C(=O)CC2(O)C(=O)Nc3ccccc32)c1 (configuration not stated) | 12
Cc1nc(SC(C(=O)O)c2ccccc2)cc(-c2ccccc2)n1 (configuration not stated) | 27

Three entries from above in another layout:
> COc1ccc(NC(=O)CCCC(=O)O)cc1
  NOMO-1 viab = -24

> C[C@@H]1CN([C@@H](C)CO)C(=O)c2cccc(NC(=O)c3ccncc3)c2O[C@H]1CN(C)Cc1ccc(C(=O)O)cc1
  NOMO-1 viab = 3

> CCS(=O)(=O)Nc1cccc(C(=O)CC2(O)C(=O)Nc3ccccc32)c1 (configuration not stated)
  NOMO-1 viab = 12

Source: PubChem BioAssay (Broad Institute)
